Screens deposited in PubChem by National Center for Advancing Translational Sciences (NCATS).
PINK1 expr mod: changes PINK1 expression; Potency, µM (highest dose often 76.6 µM), for inactives: at the highest dose activation (PINK1 increase), usual class: activators; AID 624263; PINK1 immunofluorescence, high-content cytometry, 24 h; 0.2% of 410,000 active; active = well fitted activation curve with a large enough effect; inconclusive = small, poorly fitted or top-dose-only effect; inactive = flat fitted curve, though single readings scatter; cell line not stated here;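 also: potency is read from the fitted curve at half-maximal effect; % of control where 0% means no effect; nearly all actives have a fitted effect of over 65% in size; a mitochondrial uncoupler was the plate control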
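Measures PINK1 amount and localization on or inside mitochondria by immunofluorescence. Stable cells get compounds at 5 concentrations for 24 hours before fixation and staining; CCCP controls included.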
TRPV1 PAM: human TRPV1 potentiation; TRPV1-expressing cells, Fluo-8 calcium influx, capsaicin EC20 potentiation; host cell line not named in the record; control for the full effect not named in the record; potentiation, % at 8.33 µM; 0.02% of 320,000 active; AID 540277; active means potentiation above 80%; inconclusive means 30% to 80%; inactive means below 30%; also: 0% is about no effect
Target sequence (Q8NER1 whole entry, looked up): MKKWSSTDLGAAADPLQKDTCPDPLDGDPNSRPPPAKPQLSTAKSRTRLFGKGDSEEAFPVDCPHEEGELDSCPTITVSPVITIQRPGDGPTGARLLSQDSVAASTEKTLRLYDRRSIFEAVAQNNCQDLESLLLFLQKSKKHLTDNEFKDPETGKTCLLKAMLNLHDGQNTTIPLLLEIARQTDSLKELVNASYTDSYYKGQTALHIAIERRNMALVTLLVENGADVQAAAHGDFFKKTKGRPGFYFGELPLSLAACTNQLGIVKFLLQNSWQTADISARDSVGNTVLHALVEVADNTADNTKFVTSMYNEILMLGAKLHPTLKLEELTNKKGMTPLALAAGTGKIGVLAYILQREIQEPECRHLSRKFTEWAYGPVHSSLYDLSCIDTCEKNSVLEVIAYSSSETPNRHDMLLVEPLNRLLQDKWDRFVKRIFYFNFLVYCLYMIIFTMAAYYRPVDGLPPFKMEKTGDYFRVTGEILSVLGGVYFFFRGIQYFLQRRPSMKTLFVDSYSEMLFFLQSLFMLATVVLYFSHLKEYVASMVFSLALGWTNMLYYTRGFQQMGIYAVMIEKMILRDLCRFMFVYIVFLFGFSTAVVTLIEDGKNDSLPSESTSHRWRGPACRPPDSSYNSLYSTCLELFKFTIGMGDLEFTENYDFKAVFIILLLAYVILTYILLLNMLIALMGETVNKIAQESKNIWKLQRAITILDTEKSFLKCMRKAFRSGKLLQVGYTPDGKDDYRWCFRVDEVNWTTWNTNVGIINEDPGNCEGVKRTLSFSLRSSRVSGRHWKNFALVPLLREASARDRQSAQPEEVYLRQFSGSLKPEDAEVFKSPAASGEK
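TRPV1-expressing cells were cultured overnight at 35.5C and loaded with Fluo-8 calcium dye for 40 to 90 min at room temperature. After a 10 s baseline, compound was added and calcium influx was read kinetically for 3 min (ex 480/em 520 nm).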
Sfp inh: inhibitors of Bacillus subtilis Sfp phosphopantetheinyl transferase; Q9F4F7; Biochemical Sfp PPTase activity, qHTS; Potency, µM, for inactives: max response, negative = inhibition, actives largely listed as inhibitors; 3.5% of 310,000 active; AID 1490; active = well fitted inhibition curve with a large enough effect; inconclusive = small, poorly fitted or top-dose-only effect, or another doubt; inactive = no such curve, though single readings can be large or run the other way;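 also: the enzyme is Sfp with the accession as filed and its product quenches rhodamine fluorescence; potency is read from the fitted curve at half-maximal effect; 0% = enzyme reaction without inhibitor and -100% = no enzyme wells; top concentration of the series not given in the record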
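Compounds were incubated with enzyme (final 15 nM) for 15 min at room temperature before substrate addition started the reaction. Fluorescence at 525 nm excitation, 598 nm emission was recorded immediately and after 30 minutes.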
CtBP-E1A inh: blocks the CtBP interaction with E1A; AlphaScreen GST-E1A/His-CtBP binding, 1536-well; active compounds read low; control for the full effect not named in the record; activity change, % (concentration not given with the values); 0.49% of 340,000 active; AID 651724; in the data active means activity change below about -65%; inconclusive means about -30% to -65%; inactive means above about -30%; also: % is scaled to controls: 0 for no effect and ±100 for the full control effect
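GST-E1A and His-tagged CtBP (125 nM each as 5X stock) were preincubated with pin-transferred compound for 2 h at 37 °C in the dark, then glutathione donor and nickel acceptor beads were added for 1 h before AlphaScreen reading.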
D2 PAM: human D2 receptor positive allosteric modulation; P14416; DiscoveRx D2 beta-arrestin cells, luminescence, 90 min; 100% = 57 uM dopamine signal; potentiation, % (test concentration not listed); 0.23% of 360,000 active; AID 624464; active = potentiation of 50% or more; inconclusive = 30% to 50%; inactive = 30% or less;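 also: compound concentration not given in the record; tested on top of an EC20 dose of dopamine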
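PathHunter D2 cells, attached overnight at 37 deg C, received compound in DMSO plus dopamine at EC20 (50 nM final) for 90 min at 37 deg C. Beta-arrestin recruitment was read as luminescence after 1 h with detection reagent at ambient temperature.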
Six1-Eya2 blk: inhibitors of human Six1/Eya2 interaction; 0.56% of 360,000 active; activity change, % (no concentration beside the values); Q15475+O00167; AID 651725; AlphaScreen GST-Six1/His-Eya2 binding, biochemical; active compounds read low; control for the full effect not named in the record; in the data active = activity change below about -65%; inconclusive = about -30% to -65%; inactive = above about -30%; also: % is scaled to controls: 0 for no effect and ±100 for the full control effect
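Homogeneous AlphaScreen proximity assay pairing GST-Six1 with His-tagged Eya2 (added as 5X mix: 250 nM and 500 nM) in 50 mM Tris pH 8.0, 300 mM NaCl, 1 mM TCEP. Glutathione donor and nickel acceptor beads; 1 h, 37 °C, dark.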
D2 ag: human D2 receptor agonism in beta-arrestin assay; P14416; 0.084% of 360,000 active; activation, % (concentration not given with the values); AID 624465; DiscoveRx PathHunter D2 beta-arrestin, luminescence, 90 min; 100% = 57 uM dopamine signal; in the data active = activation above about 40%; inconclusive = about 15% to 40%; inactive = below about 15%; also: compound concentration not given in the record; the text of the record calls up to 30% inactive
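Agonist mode: compounds alone added to overnight-plated D2 PathHunter cells for 90 min at 37 C, with 57 uM final dopamine (EC100) defining full response. Beta-arrestin recruitment detected by chemiluminescent reagent, read after 1 h at ambient temperature.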
* hit, by the source's call; u = inconclusive; x = not tested or not shown; [ ] = dose if it differs, or a comment. An unsorted share of the library, and some 3.7% of all compounds hit somewhere here.

SMILES | PINK1 expr mod | TRPV1 PAM | Sfp inh | CtBP-E1A inh | D2 PAM | Six1-Eya2 blk | D2 ag
CCN1CCN(C(=O)C(=O)c2cn(CC(=O)N3CCCCCC3)c3ccccc23)CC1 | 1.4% | 25.4 | 0.5% | -0.5 | -8.6 | -3.2 | 2.1
Cc1ccc(/C=N/NC(=O)c2ccc(Cn3cc([N+](=O)[O-])cn3)o2)cc1 | 4.1% | -1.8 | 1.7% | -8.7 | -5.4 | 1.6 | -3.3
COc1ccc(OC)c(Nc2nc(N(C)c3ccccc3)nc(N)c2[N+](=O)[O-])c1 | 0.6% | u | -6.3% | x | -5.3 | u | -4.6
Cc1[nH]c2ccccc2c1/C=N/NC(=O)c1cc(C(C)C)[nH]n1 | -2.1% | 6.4 | -1.9% | 1.7 | -6.4 | -9.0 | 3.8
O=C(N[C@H](CO)c1ccccc1)[C@H]1O[C@@H](n2ccc(=O)[nH]c2=O)[C@H](O)[C@@H]1O | -0.3% | x | x | -9.8 | -7.4 | -5.6 | -3.6
OCC[C@@H]1C[C@@H](O)[C@H](O)[C@]2(CCCO2)O1 | 3.1% | x | x | 1.9 | 0.3 | 1.8 | 0.1
C=CCSc1nnc(NC(=O)CSCc2c(C)noc2C)s1 | -0.7% | x | x | 0.0 | -25.4 | 34.7 | 3.4
CCCCn1cnc2c(SCc3ccc([N+](=O)[O-])cc3)nc(N)nc21 | 13.8% | x | x | 3.0 | 11.7 | 0.0 | 3.3
Cc1nc(Cl)c(C(=O)NC(C)(C)C)c(C)c1Cl | -0.3% | -4.0 | 6.1% | 1.5 | -11.4 | 2.2 | -4.1
O=C(CCn1c(=O)oc2ccccc21)NCCCN1CCCC1=O | -1.6% | 8.0 | 27.5% | 2.5 | -9.8 | 2.3 | -4.6
CN1CCCN(C(=O)c2cc(-c3cccc4ccccc34)nc3ccccc23)CC1 | -0.8% | 8.4 | 3.1% | -7.2 | -6.5 | -7.1 | 0.4
O=C(O)c1cc(N2C(=O)C3CCCCC3C2=O)ccc1NCc1cccnc1 (stereo not drawn) | -2.7% | 13.9 | 22.7% | -10.0 | -2.0 | 9.4 | -2.9
CCOc1ccc(Cc2noc3c2C(=O)CCC3)cc1OCC | -0.1% | -18.8 | 11.8% | 5.2 | -0.4 | 6.4 | -1.0
O=C(COC(=O)COc1ccc(Cl)cc1)NCc1ccc2c(c1)OCO2 | -1.9% | x | x | 5.0 | -3.7 | 0.8 | -2.3
Cc1nc2ccc(C(=O)OCc3nnc(-c4ccccc4)o3)cc2nc1C | -2.0% | -10.3 | 21.6% | 3.9 | 7.7 | -9.3 | -2.8
Cn1c(N2CCOCC2)c(/C=N/OC(=O)c2cccnc2Cl)c2ccccc21 | 0.1% | -2.1 | 22.4µM* | 7.2 | -5.5 | 8.4 | -0.6
CCOC(=O)N1CCN(C(=O)Nc2cccc(Cl)c2)CC1 | 2.8%[38.3 µM] | -8.4 | 19.6% | 2.7 | 2.3 | 3.0 | 0.6
CCC(NC(=O)NC1CCCCC1)c1ccccc1 (stereo not drawn) | 2.9% | -11.0 | 10.3% | 5.1 | 0.6 | 5.0 | -3.2
CCOc1ccc(C2C(C#N)=C(N)Oc3nc[nH]c(=O)c32)cc1OC (stereo not drawn) | -1.8% | -16.9 | -1.2% | 1.5 | -1.3 | 3.9 | -4.4
Cc1cccc(NC(=O)C(C)Sc2ncnc3sccc23)c1 (stereo not drawn) | 4.6% | x | x | 4.5 | -10.3 | 17.0 | -4.0
CCn1cc(CNC(=O)c2cccc([N+](=O)[O-])c2)cn1 | -2.0% | -1.0 | 4.5% | 1.2 | -15.4 | 1.0 | -0.4
Nc1cc2c(cc1Br)-c1c(C(=O)O)cccc1C2O (stereo not drawn) | -2.5% | x | x | -0.8 | -0.9 | -12.7 | -3.1
Cc1cccc(N2CCN(CC(=O)N(C)Cc3ccccc3)CC2C)c1 (stereo not drawn) | -2.3% | 8.5 | 14.0% | -17.8 | -13.7 | -16.3 | -1.4
O=C(Nc1ccc(S(=O)(=O)Nc2ncccn2)cc1)c1ccc(Br)cc1 | 1.9% | x | x | -0.4 | -0.7 | -10.4 | -3.1
CCCCNC1c2ccccc2C(=O)N1Cc1ccccc1 (stereo not drawn) | 12.0% | -0.1 | -6.1% | 4.1 | -5.7 | 8.2 | -1.4
COc1cc(C(=O)c2ccccc2)c(OC)cc1C(=O)Nc1ccc(O)cc1 | -2.3% | -16.3 | -4.8% | -28.7 | -8.0 | -14.6 | -2.8
O=C(c1cc(-c2ccc(F)cc2)no1)N1CCN(Cc2ccc3c(c2)OCO3)CC1 | -0.1% | -5.2 | 16.9% | -0.7 | -3.6 | -9.1 | -4.7
Cc1ccc2nc(CSc3nnc(-c4ccncc4)n3C)cc(=O)n2c1 | 2.0% | 7.1 | 9.8% | -8.6 | 18.0 | 4.6 | -1.9
CC(c1ccccc1)n1cc(C(=O)NCc2ccncc2)nn1 (stereo not drawn) | 0.0% | -20.5 | 18.0% | 1.8 | 1.6 | 5.7 | -1.7
Cc1ccc(/C=N/Nc2ncnc3nc[nH]c23)cc1 | -0.1% | -26.0 | -12.1% | -13.5 | -7.4 | -23.5 | -3.6
CC(C)(C)N1CC(COc2ccccc2)OC1=O (stereo not drawn) | -2.9% | -1.4 | 24.8% | 1.5 | -12.4 | 1.0 | -4.7
O=C1c2ccccc2C(=O)N1CCOc1ccccc1 | 1.5% | x | x | -0.2 | 3.5 | 8.3 | -3.5
OC[C@H]1O[C@@H](c2nc(-c3ccc4c(c3)CCO4)no2)[C@H](O)[C@@H](O)[C@H]1O | 1.5% | x | x | 5.0 | -3.2 | 9.9 | -5.3
Nc1nonc1-c1noc(-c2ccccc2)n1 | 1.7%[38.3 µM] | -1.0 | 18.4% | 6.0 | -3.2 | 5.6 | 2.5
COc1ccc(CNC(=O)C2CC(c3cccc([N+](=O)[O-])c3)=NO2)cc1 (stereo not drawn) | 1.4% | 19.2 | 10.0% | 0.4 | -15.1 | -1.2 | -0.8
O=C(c1cccc(Br)c1)N1CCN(C(=O)c2cccc(Br)c2)CC1 | -1.5% | 20.7 | 16.6% | 5.4 | -6.2 | 4.2 | 0.4
COc1ccc(CCC(=O)OC(C)C(=O)c2ccc(C)cc2)cc1 (stereo not drawn) | 0.2% | -19.2 | -1.1% | 34.0 | -4.4 | 24.1 | -1.2
Cc1ccc(-c2cc(C(=O)Nc3c(C)n(C)n(-c4ccccc4)c3=O)c3ccccc3n2)cc1 | 1.6% | x | x | -5.1 | -25.9 | -6.8 | -0.8
CC(C)(C)c1ccc2c(c1)OC(C(=O)N/N=C\c1ccccn1)CO2 (stereo not drawn) | 0.6% | -53.8 | 10.4% | u | 0.0 | -12.4 | 1.5
O=C(O)c1cccc(Nc2ncnc3sccc23)c1 | -1.0% | 10.3 | -16.1% | 0.4 | -3.8 | -7.0 | -3.4
CC(C)(C)n1nnnc1C(c1cc2ccccc2o1)N1CCN(C(=O)OCc2ccccc2)CC1 (stereo not drawn) | 2.4% | x | x | -2.3 | x | -8.5 | x
C/C(CCC1CC(C)OC1=O)=N\NC(N)=O (stereo not drawn) | 2.1% | -2.5 | 9.0% | 9.1 | -10.0 | 9.4 | -1.0
COc1ccc(CCNC(=O)CN(c2cc([N+](=O)[O-])ccc2OC)S(C)(=O)=O)cc1OC | 0.2% | -15.0 | -5.3% | x | -4.2 | -0.6 | 4.7
CC1CN(S(=O)(=O)c2ccc(NC(=O)CCCN3C(=O)c4ccccc4C3=O)cc2)CC(C)O1 (stereo not drawn) | u | -5.7 | 11.1% | 5.2 | -4.5 | 3.8 | -4.5
COCC(=O)Nc1ccc(N(C)C)cc1 | 0.2% | -13.0 | -7.1% | -1.8 | 6.7 | -1.6 | 0.2
COc1ccc([C@H]2C[C@@H](n3cc(COC(=O)c4ccccc4)nn3)[C@H](O)CN2C(=O)c2cccs2)cc1 | -0.8% | x | x | -1.4 | -8.2 | -3.1 | -3.3
Cc1cccc(N(CC(=O)NCCSCc2ccco2)S(=O)(=O)c2ccccc2)c1 | -0.6% | 3.1 | 56.2µM* | -9.6 | -12.3 | -4.4 | -2.4
O=c1ccncn1C1OC(CO)C(O)C1O (stereo not drawn) | -3.8% | x | x | 0.0 | 5.2 | 10.0 | -1.3
COc1ccc(C)cc1NS(=O)(=O)c1ccc(Cl)nc1 | 7.7% | -3.4 | x | 6.1 | -2.5 | 2.4 | -2.6
N/C(=N\OC(=O)CCCc1ccccc1)c1ccc(Br)cc1 | u | 24.1 | 21.7% | 51.4 | -3.0 | 33.6 | 2.4
COc1ccc(/C(C)=N/N2CCCCC2)c(O)c1 | 0.1% | -11.6 | 7.4% | x | -7.7 | 5.5 | 2.0
COc1ccc(C)cc1NC(=O)c1sc2ncnc(N3CCN(c4ccccn4)CC3)c2c1C | 2.3% | -1.8 | 1.5% | -6.8 | -8.2 | 0.0 | -2.3
O=C(Cc1noc2ccccc12)NNC(=S)Nc1ccc(Cl)cc1 | -0.1% | 12.6 | 16.7% | 2.1 | -11.6 | -8.5 | -8.8
Cc1cc(C)c(OCCN(C)C)c(Cl)c1 | 2.6% | 4.8 | -17.7% | 0.9 | -19.4 | -15.7 | -2.1
O=C(Nc1ccc(N2CCCC2)c(Cl)c1)c1cccs1 | 2.0% | 0.2 | 4.9% | -15.9 | -16.5 | -1.2 | -2.9
O=C(Nc1ccc(Cl)cc1F)c1ccccc1Br | 5.3% | -11.1 | -9.3% | 11.2 | -4.4 | 15.1 | -2.6
